2A StopGo: FMDV 2A StopGo reporter, luciferase signal. human cells with a luciferase reporter of 2A StopGo recoding; control for the full effect not named in the record. Potency, µM (series often up to 57.9 µM), for the others: at the top dose signal change, negative = less light. 410,000 compounds, 1.2% hits. AID 1159524; active = well fitted falling curve with a large enough effect; inconclusive = small, poorly fitted or top-dose-only effect; inactive = no such curve, though single readings can be large or run the other way; tested in HEK293T cells; also: % is scaled to controls: 0 for no effect and ±100 for the full control effect; nearly all actives have a fitted effect of over 45% in size; luciferase light after 4 h
RE007 growth inh: less growth of the S. pombe RE007 Vpr strain; S. pombe RE007 Vpr strain, BacTiter-Glo ATP luminescence, 24 h; control for the full effect not named in the record; Potency, µM (series often up to 92.2 µM), inactives show at the top dose activity change, negative = less growth; 360,000 compounds, 0.21% hits; active = well fitted falling curve with a large enough effect; inconclusive = small, poorly fitted or top-dose-only effect; inactive = no such curve, though single readings can be large or run the other way;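 also: % is scaled to controls: 0 for no effect and ±100 for the full control effect; nearly all actives have a fitted effect of over 50% in size; the assay follows cell death caused by Vpr and the record does not say whether a fall means rescue or toxicity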
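Fission yeast RE007 carrying one integrated HIV-1 vpr copy, seeded at OD 0.01 in PMG+AL medium with 23 nL pinned compound. Grown 24 h at 30 degrees; viability read by BacTiter-Glo luminescence after 5 min.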
Cruzain Triton: inhibitors of Trypanosoma cruzi cruzain with detergent. P25779. purified cruzain, Z-FR-AMC fluorescence, 0.01% Triton. Potency, µM, inactives show max response, negative = inhibition, most hits filed as inhibitors. 200,000 compounds, 0.43% hits. AID 1478; active = well fitted curve in the direction sought with a large enough effect; inconclusive = small, poorly fitted or top-dose-only effect, or another doubt; inactive = no such curve, though single readings can be large; an effect the other way counts as inactive or inconclusive;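 also: plate controls were neutral wells for no effect and buffer without enzyme for full effect; nearly all actives have a fitted effect of over 40% in size; top concentration of the series not given in the record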
Target sequence (P25779 123-467 limits assumed): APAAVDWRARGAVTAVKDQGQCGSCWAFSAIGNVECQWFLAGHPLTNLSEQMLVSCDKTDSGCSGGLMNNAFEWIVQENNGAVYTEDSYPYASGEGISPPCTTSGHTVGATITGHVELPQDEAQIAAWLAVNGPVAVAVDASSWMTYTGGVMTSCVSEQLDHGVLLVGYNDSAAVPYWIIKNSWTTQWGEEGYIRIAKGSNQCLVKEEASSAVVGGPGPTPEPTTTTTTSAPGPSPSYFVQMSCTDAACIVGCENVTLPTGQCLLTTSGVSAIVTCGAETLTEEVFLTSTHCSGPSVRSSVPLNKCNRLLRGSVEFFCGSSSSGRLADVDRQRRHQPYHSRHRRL
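15 min RT preincubation of 1.5 nM cruzain with compound, then 2 uM Z-FR-AMC added; kinetic AMC fluorescence, 60 s delta. Triton X-100 0.01%, pH 5.5.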
SARS PLpro yeast: inhibitors of SARS-CoV papain-like protease in yeast | S. cerevisiae expressing SARS-CoV PLpro, growth rescue; control for the full effect not named in the record | Potency, µM (titrated, usually from 32.9 µM), for the others: at the top dose activity, positive = growth rescue | 330,000 compounds, 0.19% hits | AID 485353; also: 0% is about no effect; nearly all actives have a fitted effect of over 55% in size; growth read by luminescence after 48 h
NS1 function inh: influenza NS1 inhibition; AID 2326; Potency, µM (highest dose often 46.1 µM), without a hit: at the highest dose activity, positive = more growth; S. cerevisiae slowed by influenza A NS1, growth recovery by OD600; 270,000 compounds, 0.4% hits; also: actives are rising curves; nearly all actives have a fitted effect of over 50% in size
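Growth recovery, yeast-based: influenza A NS1 expressed in S. cerevisiae causes slow growth, and suppressors are detected by OD600. The parent strain without NS1 is used as positive control.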
Lassa entry inh: inhibitors of Lassa virus binding or cell entry; Lassa virus pseudotype entry inhibition, cell reporter; control for the full effect not named in the record; Potency, µM (highest dose often 37.9 µM), for the others: at the top dose activity change, negative = inhibition, actives largely listed as inhibitors; 300,000 compounds, 1.2% hits; AID 540256; active means well fitted inhibition curve with a large enough effect; inconclusive means small, poorly fitted or top-dose-only effect, or effect the other way; inactive means flat fitted curve, though single readings scatter; tested in HEK293 cells; also: % is scaled to controls: 0 for no effect and ±100 for the full control effect; nearly all actives have a fitted effect of over 50% in size; luciferase read-out
Cruzain noTriton: cruzain (T. cruzi) inhibition without detergent. Potency, µM, inactives show max response, negative = inhibition, most hits filed as inhibitors. P25779. purified cruzain, Z-FR-AMC fluorescence, no detergent. 200,000 compounds, 2.3% hits. AID 1476; active = well fitted curve in the direction sought with a large enough effect; inconclusive = small, poorly fitted or top-dose-only effect, or another doubt; inactive = no such curve, though single readings can be large; an effect the other way counts as inactive or inconclusive;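 also: plate controls were enzyme without inhibitor for no effect and buffer without enzyme for full effect; nearly all actives have a fitted effect of over 40% in size; top concentration of the series not given in the record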
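Purified cruzain at 1.5 nM, pre-incubated 15 min with compound at room temperature in 100 mM sodium acetate pH 5.5, 5 mM DTT, 0.00005% Triton X-100. Reaction started with 2 uM Z-FR-AMC; AMC fluorescence increase over 60 s gives rate.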
Marburg entry inh: inhibitors of Marburg virus binding or cell entry. Potency, µM (doses to about 37.8 µM), for the others: at the highest dose activity change, negative = inhibition, usual class: inhibitors. 300,000 compounds, 1.8% hits. Marburg virus pseudotyped entry inhibition, cell reporter; control for the full effect not named in the record; about a third of the inactives were read at about 46 µM; active = well fitted inhibition curve with a large enough effect; inconclusive = small, poorly fitted or top-dose-only effect, or effect the other way; inactive = flat fitted curve, though single readings scatter; tested in HEK293 cells; about a fifth of its hits are not listed in these tables; also: % is scaled to controls: 0 for no effect and ±100 for the full control effect; luciferase read-out
Active calls of the source: *; ? = inconclusive; nt = no result given; & = joins results of further samples; [ ] = dose if it differs, or a comment. Unless noted, calls follow the shape of the dose curve; as a rule, active means well fitted rising curve with a large enough effect; inconclusive means small, poorly fitted or top-dose-only effect; inactive means no such curve, though single readings can be large or run the other way. Potency is read from the fitted curve at half-maximal effect.

No.	structure	2A StopGo	RE007 growth inh	Cruzain Triton	SARS PLpro yeast	NS1 function inh	Lassa entry inh	Cruzain noTriton	Marburg entry inh
1	CCOCCCNC(=O)N[C@H](C(=O)OC)C(C)CC (stereo not given in full)	-2%	-4%	nt	0%	2%	9%	nt	-9%
2	N#Cc1ccc(C(=O)N(Cc2ccccc2)c2ccccc2)cc1	-8%	25%	nt	-17%	-21%	-28%[46.1 µM]	nt	0%[46.1 µM]
3	COC(=O)c1ccccc1NC(=O)c1cc[n+]([O-])cc1	-2%	2%	nt	2%	-2%	nt	nt	nt
4	COc1ccc(C(=O)NCC(=O)OCc2ccccc2F)cc1	35%[activator]	-7%	nt	0%	-5%	-1%	nt	?
5	O=C(CN1C(=O)NC2(CCc3ccccc3C2)C1=O)NCc1ccco1 (stereo not given)	-3%	16%	nt	0%	nt	?	nt	?
6	Cc1c(C(=O)OCC(=O)N(CC(C)C)c2c(N)n(Cc3ccccc3)c(=O)[nH]c2=O)oc2ccccc12	-17%	3%	nt	0%	nt	-29%	nt	0%
7	CC(C)C(=O)N1CCN(c2c(Cl)cccc2[N+](=O)[O-])CC1	-22%	16%	-2.5%	-1%	-63%	-8%	-2%	-1%
8	CC(c1ccco1)N(C(=O)c1cccc(S(=O)(=O)N(C)C)c1)c1ccccn1 (stereo not given)	33%[activator]	2%	nt	-2%	3%	-5%	nt	18%
9	CCn1c(SCC(=O)c2ccc(OC)cc2)nnc1C(C)NC(=O)c1ccc(OC)cc1 (stereo not given)	0%	10%	-0.1%	1%	-2%	-4%	-15%	19%&19%
10	COc1ccc(C2C(C(=O)Nc3ccccn3)=C(C)Nc3ncnn32)c(OC)c1 (stereo not given)	-22%	-8%	-0.9%	12%	9%	nt	1%	3%
11	CCn1nnnc1Oc1ccc(Cl)cc1	nt	-3%	1.8%	4%	9%	24%	2%	5%
12	CC[N+](C)(CC)CC(=O)OCC1C(C)C=C(C)CC1C (stereo not given)	0%	-4%	nt	-1%	-2%	4%[46.1 µM]	nt	-17%[46.1 µM]
13	COc1ccc(CNC(=O)C(=O)NCC2OCCN2S(=O)(=O)c2ccc3c(c2)OCCO3)cc1 (stereo not given)	0%	9%	-3.4%	-4%	-4%	-9%	1%	8%
14	CC(C)(Sc1ccc(CCN(CCCCC2CCCCC2)C(=O)NC2CCCCC2)cc1)C(=O)O	?	3%[18.4 µM]	?	nt	-7%	-6%	?	?
15	O=C(N/N=C/c1cccnc1)c1ccccc1	0%	16%	nt	0%	3%	nt	nt	nt
16	CN(Cc1ccccc1)C(=O)Cc1ccccc1	17%	-6%	nt	-1%	8%	nt	nt	nt
17	CC(=O)NN1CCc2cc3ccc(C)cc3nc21	-8%	10%	nt	1%	6%	nt	nt	nt
18	O=S(=O)(c1ccccc1)c1cccc(S(=O)(=O)N2CCCCC2)c1	-16%	55%	-3.3%	12%	2µM*	?	13%	?
19	CC(C)N(Cc1ccccc1)C(=O)CN1C(=O)CSc2ccc(S(=O)(=O)N3CCCC3)cc21	-10%	nt	0.5%	nt	nt	?	3%	nt
20	Cc1cc(C)nc(SCC(=O)OCN2C(=O)c3ccccc3C2=O)n1	9%	-1%	5.2%	-2%	3%	3%	-2%	20%
21	OCC1(Cc2ccccc2)CCN(Cc2ccc(C(F)(F)F)cc2)CC1	-30%	-16%	nt	19%	2%	nt	nt	nt
22	O=C(Cc1cc(=O)[nH]c(=O)[nH]1)NCC1CCCO1 (stereo not given)	-7%	-11%	-2.4%	-1%	-32%	nt	-6%	nt
23	COCCN(C(=O)COC(=O)c1cc2c(s1)CCC2)c1c(N)n(Cc2ccccc2)c(=O)[nH]c1=O	-10%	29%	nt	1%	nt	0%	nt	?
24	CC(C)n1c(O)c(N=Nc2ccc(Cl)c(C(=O)O)c2)c2ccccc21	-2%	8%	nt	-1%	-54%	nt	nt	nt
25	CSc1ncc(S(=O)(=O)c2ccccc2)c(=O)[nH]1	2%	7%	nt	0%	nt	7%	nt	?
26	O=C1OCCN1C(=O)[C@H]1[C@H](c2ccc(Cl)cc2)C(c2cccc(Cl)c2)=NN1c1ccccc1	-16%	5%	-14%&-16%	3%	?	?	18µM*	-41%
27	CSc1nc2c(c(-c3ccc(O)cc3)c1C#N)CCC2	-23%	-10%	-10%	0%	-5%	5%	4%	3%
28	Cc1oc(-c2ccc3ccccc3c2)nc1CN(C)C(C)c1ccncn1 (stereo not given)	0%	-1%	nt	1%	5%	5%	nt	3%[46.1 µM]
29	COc1ccc(S(=O)(=O)N2CCOCC2)cc1C(=O)NCc1ccccc1CN1CCCC1	-26%	9%	nt	4%	nt	-20%	nt	?
30	COCCn1c(Sc2ccc(C)cc2)nc2c1c(=O)[nH]c(=O)n2C	-29%	18%	4.7%	-5%	-6%	-19%	8%	4%

The listing continues.
No.	structure	2A StopGo	RE007 growth inh	Cruzain Triton	SARS PLpro yeast	NS1 function inh	Lassa entry inh	Cruzain noTriton	Marburg entry inh
31	COc1cc(C(=O)OCC(=O)N(C)Cc2ccccc2)cc(OC)c1OC	-8%	-3%	0.2%	15%	-7%	-4%	6%	-3%
32	O=C(NCCCn1ccnc1)c1noc2c1CCc1ccccc1-2	17%	13%	-7.5%	-7%	-19%	?	-14%	-4%
33	Cc1ccccc1NC(=S)NC(C)C(c1cccs1)N1CCOCC1 (stereo not given)	-12%	-3%	1.2%	3%	2%	-2%	-10%	8%
34	O=C(NCCc1ccccc1)c1cnc(Cl)c(Cl)c1	48%[activator]	15%	nt	-2%	-5%	?	nt	-8%
35	Cc1ccc(C(=O)COC(=O)C2CCC2)cc1	53%[activator]	-23%	nt	-1%	0%	-7%[46.1 µM]	nt	?
36	CCOC1=NN(c2ncc(C(F)(F)F)cc2Cl)C(=O)C1	-6%	13%	nt	2%	0%	-5%	nt	?
37	CCNC(=O)CC1C(=O)N(c2ccc(C)cc2)C(=O)N1CCC(C)C (stereo not given)	10%&-5%	-5%	-0.5%	-1%	-3%	-9%	-3%	-4%
38	COc1ccc(C(=O)/C(=C\c2ccco2)N2C=CC=CC2=C(C#N)C#N)cc1	11µM*	-20%	-6.9%	-5%	6%	?	-18%	?
39	COc1cc(/C=N/NC(=O)c2cccc(S(=O)(=O)N3CCCC3)c2)ccc1O	?	-6%	nt	6%	nt	0%	nt	30%
40	O=C(Nc1ccc2c(c1)OCCO2)C1CCN(S(=O)(=O)c2ccccc2)CC1	-13%	-1%	nt	0%	-4%	2%	nt	5%
41	CCc1ccc(NC(=O)Cn2c(=O)n(Cc3ccco3)c(=O)c3cccnc32)cc1	-2%	nt	3.9%	nt	nt	nt	-3%	?
42	Cc1ccc(/C=N/NC(=O)CNC(=O)c2cccs2)cc1	8%	-4%	nt	4%	5%	nt	nt	nt
43	COc1ccc(NC(=O)CCCCCN2C(=O)c3cccc([N+](=O)[O-])c3C2=O)c(OC)c1	-5%	13%	nt	-3%	-1%	nt	nt	nt
44	O=C(O)C1CC=CCC1C(=O)N1CC=C(c2ccccc2)CC1 (stereo not given)	-13%	-10%	nt	-2%	nt	-1%	nt	-14%[46.1 µM]
45	N#Cc1ccccc1Cn1cc(/C=C/[N+](=O)[O-])c2ccccc21	14µM*	-1%	-6.8%	-103%	-5%	23µM*	?	?
46	CC/C=C\[C@H](O)[C@H](O)C1=C(C)C(=O)[C@]2(O1)C(=O)N[C@@](OC)(C(=O)c1ccccc1)C2O (stereo not given in full)	-12%	-5%	nt	1%	3%	nt	nt	nt
47	COc1ccc(S(=O)(=O)NCC(c2ccc(N(C)C)cc2)N2CCc3ccccc32)cc1 (stereo not given)	25%	nt	0.6%	nt	nt	11%[46.1 µM]	-4%	nt
48	CCOC(=O)c1c(NC(=O)COC(=O)c2c(C)noc2C)sc2c1CCC2	-11%	1%	-5.2%	-14%	-28%	?	-5%	?
49	Cc1cccc(CN2CCN(Cc3ccc(Cl)cc3)CC2)c1	?	29%	5.6%	-1%	1%	?	-6%	?
50	O=C(COc1ccc([N+](=O)[O-])cc1)Nc1cccc(C(=O)Nc2ccccc2C(=O)O)c1	-13%	-5%	nt	1%	3%	nt	nt	nt
51	CCNC(=S)Nc1c(C)n(C)n(-c2ccccc2)c1=O	-8%	7%	nt	0%	1%	nt	nt	nt
52	Cc1ccc(C(C)C)c(OCCNC(=O)c2ccccc2O)c1	?	?	nt	-17%	-124%	?	nt	?
53	CCOc1ccc(-c2c(C(=O)N/N=C/c3ccc(C)cc3)nnn2-c2nonc2N)cc1	-12%	6%	nt	1%	-8%	nt	nt	nt
54	Cc1[nH]n(-c2ccccc2)c(=O)c1/C=N/NC(=O)c1cccc([N+](=O)[O-])c1	0%	8%	0.6%	7%	-3%	?	?	?
55	C[C@@H]1CN(C2CCN(Cc3nc(C(c4ccccc4)c4ccccc4)no3)CC2)C[C@H](C)O1	-15%	12%	nt	-1%	0%	-21%	nt	?
56	NS(=O)(=O)c1ccc(CCn2c(=S)[nH]c3ccccc3c2=O)cc1	-26%	-12%	nt	0%	4%	4%	nt	?
57	COc1ccc(C(=O)N2CCCC2)cc1S(=O)(=O)N1CCOCC1	24%	8%	3.3%	nt	-2%	-24%[14.3 µM]	-14%	14%
58	CC1CC(C)CN(CCCNC(=O)c2ccc(N3CCCC3=O)cc2)C1 (stereo not given)	-12%	4%	nt	2%	1%	nt	nt	nt
59	Cc1cccc(-n2ncc3c2CCCC3NC(=O)CN2CCOC2=O)c1C (stereo not given)	-25%	0%	nt	4%	2%	nt	nt	nt
60	CC(=O)OCC(=O)N1N=C(c2ccc3ccccc3c2)CC1c1ccccc1 (stereo not given)	4%	0%	nt	-6%	nt	10%[46.1 µM]	nt	-1%[46.1 µM]
61	Cc1ccc(CNC(=O)COC(=O)Cn2nc(C)c([N+](=O)[O-])c2C)cc1	-2%	5%	nt	0%	-5%	-24%[46.1 µM]	nt	0%[46.1 µM]
62	CC(=O)NCCc1nc2cc(NC(=O)c3cccc([N+](=O)[O-])c3)ccc2n1C	15%	3%	nt	2%	-1%	nt	nt	nt
